CSC inhib: cancer stem cell inhibition; cancer stem cell-like cells viability, luminescence; inhibition, % at 7.5 µM; 300,000 tested, 1.1% active; AID 2717;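 active = mean at 75% or more and at least half the replicates too; inconclusive = mean and replicates disagree; tested in HMLE shEcad cells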;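 note: 0% = median of negative and 100% = median of positive control wells; the first replicate is given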
eIF4H FP inh: inhibitors of RNA binding by human eIF4H. AID 2012. Q15056. inhibition, % at 35 µM. eIF4H fluorescence polarization binding assay. 290,000 tested, 0.94% active;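 active = 50% or more with normal probe brightness, or confirmed in later tests; inconclusive = above 50% with abnormal brightness, or retests that disagree; inactive = below 50% or failed in later tests; about a fifth of its hits are not listed in these tables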;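 note: calls also rest on retests at 20 µM and on dose response follow-up; 0% = protein and probe with vehicle and 100% = probe without protein; strong numbers were not always called active; many hits fall short of the cut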
PABP FP inh: PABP-poly(A) binding inhibition; AID 2014; 290,000 tested, 1% active; PABP-poly(A) RNA binding, fluorescence polarization; P11940; inhibition, % at 35 µM;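 active = 50% or more with normal probe brightness, or confirmed in later tests; inconclusive = above 50% with abnormal brightness, or retests that disagree; inactive = below 50% or failed in later tests; about a fifth of its hits are not listed in these tables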;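 note: calls also rest on retests at 20 µM and on dose response follow-up; controls were probe without protein and protein plus probe with vehicle; some compounds called inactive have numbers as strong as hits; many hits fall short of the cut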
Target sequence (P11940 whole entry, looked up): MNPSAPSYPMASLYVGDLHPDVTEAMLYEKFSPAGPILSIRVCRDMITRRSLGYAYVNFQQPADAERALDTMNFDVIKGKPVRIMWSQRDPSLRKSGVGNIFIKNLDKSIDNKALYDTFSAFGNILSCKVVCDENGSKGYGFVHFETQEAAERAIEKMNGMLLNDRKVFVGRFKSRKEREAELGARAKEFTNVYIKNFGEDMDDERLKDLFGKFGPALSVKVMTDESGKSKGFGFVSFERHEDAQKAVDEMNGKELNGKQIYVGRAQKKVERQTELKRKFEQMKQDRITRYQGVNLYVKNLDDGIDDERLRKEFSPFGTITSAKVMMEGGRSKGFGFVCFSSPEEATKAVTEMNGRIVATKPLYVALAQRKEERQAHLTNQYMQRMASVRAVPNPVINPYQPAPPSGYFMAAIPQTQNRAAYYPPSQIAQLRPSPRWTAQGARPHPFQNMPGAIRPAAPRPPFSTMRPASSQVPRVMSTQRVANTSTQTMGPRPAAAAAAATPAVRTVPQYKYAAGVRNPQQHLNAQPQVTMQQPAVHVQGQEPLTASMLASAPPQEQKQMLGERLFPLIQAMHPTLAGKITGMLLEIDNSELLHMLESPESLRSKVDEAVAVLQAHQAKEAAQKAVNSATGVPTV
Yeast UUG start: modulators of start codon recognition fidelity in yeast; 350,000 tested, 0.13% active; activity score, % at 18.7 µM; S. cerevisiae UUG-firefly luciferase reporter, luminescence/redox ratio;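 active = replicate mean at a twofold rise or more, about +100% in these data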;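 note: firefly luciferase made from a UUG start codon reports start codon fidelity; reporter light over untreated wells divided by growth signal over untreated wells; some hits fall short of that in this replicate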
Env fusion inh: blocks HIV Env-driven cell-cell fusion; HeLa-JRFL Env/CEM21 cell fusion, luciferase; 360,000 tested, 1.1% active; inhibition, % at 12.3 µM;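 active = mean replicate inhibition score of at least 50 and every replicate individually at or above 50; inconclusive = only one of the two criteria met; inactive = mean below 50 and not all replicates reaching 50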;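 note: 0% = plate neutral controls and 100% = maraviroc near 300 nM; one replicate is shown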
MT1-MMP act inh: inhibitors of human MT1-MMP activation | P50281 | HT1080 RFP-PRO-GFP cells, GFP/RFP ratio fluorescence, overnight; percent of plate control window, DMSO zero | GFP/RFP ratio change, % at 20 µM | 360,000 tested, 0.061% active;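 active = GFP/RFP ratio change of at least 30% with cell ATP level not reduced by more than half and red fluorescence within 50% of control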; note: strong numbers were not always called active
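Assay system: HT1080 RFP-PRO-GFP cells. Benchmarks: DMSO vehicle wells and RFP-L50D-GFP reporter cell wells. Times: overnight cell settling, then overnight compound exposure, 37 °C, 5% CO2. Compound: 20 µM single dose, 1% DMSO. Read-out basis: GFP/RFP fluorescence ratio.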
Rce1 inh: inhibitors of yeast Ras-converting enzyme. yeast membranes, quenched prenylated peptide cleavage fluorescence. calls only. 290,000 tested, 0.27% active. AID 2563;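 active = fall in fluorescence gain of 50% or more versus controls, with final raw signal at or below 3038400; inconclusive = same 50% fall but final raw signal above 3038400; inactive = fall in fluorescence gain under 50%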;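 note: plate controls were neutral control wells for no effect and wells lacking membranes for full effect; tested at 10 µM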
Target sequence (Q03530 whole entry, looked up): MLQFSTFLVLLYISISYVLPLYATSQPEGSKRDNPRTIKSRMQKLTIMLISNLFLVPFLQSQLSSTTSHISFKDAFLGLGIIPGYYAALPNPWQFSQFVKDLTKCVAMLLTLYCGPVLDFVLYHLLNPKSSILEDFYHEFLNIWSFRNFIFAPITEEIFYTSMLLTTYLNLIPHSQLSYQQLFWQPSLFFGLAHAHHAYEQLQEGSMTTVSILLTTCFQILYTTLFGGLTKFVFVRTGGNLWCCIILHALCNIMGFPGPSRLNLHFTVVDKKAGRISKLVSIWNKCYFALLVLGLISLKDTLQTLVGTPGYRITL
MT1-MMP act inh RFP: recorded beside MT1-MMP act inh, whose call it bears; RFP signal change, %; measured here: RFP expression control read;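 0 = vehicle wells; hits needed this value within 50% of zero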
Numbers without * were called inactive; i = inactive; ? = inconclusive; / = not tested or not shown; & = joins results of further samples. An excerpt; rates above refer to the full screens.

Under each structure – CSC inhib | eIF4H FP inh | PABP FP inh | Yeast UUG start | Env fusion inh | MT1-MMP act inh | MT1-MMP act inh RFP | Rce1 inh
O=S(=O)(Nc1ccc2c(c1)nc1n2CCN(Cc2ccccc2)C1)c1ccccc1
    -2 | 4 | 2 | / | 26 | 1 | -5 | i
CCCCN(C)CCCN1C(=O)C2C(C(=O)Nc3cccc(OC)c3)C3C=CC2(O3)C1C(=O)NC1CCCCC1C (stereo not drawn)
    -33 | -4 | 0 | -11 | 9 | 1 | 1 | i
COc1ccc(CC(=S)N2CCOCC2)cc1
    5 | -9 | -1 | -22 | -117 | -2 | 1 | i
O=c1onc(-c2cccs2)n1Cc1ccccc1
    -9 | 2 | -10 | -9 | -28 | 4 | 0 | i
C=CCOc1ccc(/C=C2/C(=N)N3N=C(CC(=O)N4CCCC4)SC3=NC2=O)cc1OC
    -5 | 8 | 14 | -1 | -7 | -1 | 3 | i
CCn1nc(C(=O)O)c(=O)c2cc3c(cc21)OCO3
    -5 | -6 | 9 | -14 | / | -3 | -1 | i
COc1ccc(CC(=O)OCC(=O)NCC2CCCO2)cc1OC (stereo not drawn)
    9 | / | / | 5 | / | 0 | 3 | /
Nc1cc(C(=O)N/N=C/c2cccc([N+](=O)[O-])c2)n[nH]c1=O
    13 | -2 | 2 | -28 | -17 | -2 | -5 | i
Cc1ccc(NC(=O)CN(C)Cc2ccc(F)cc2)c([N+](=O)[O-])c1
    1 | -3 | -1 | -13 | 28 | 0 | 1 | i
O=C(Nc1ccccc1)O/N=C1/CCCc2occc21
    -10 | -1 | -1 | -11 | -7 | -5 | -4 | i
CCc1ccc2nc(NC(=O)Cn3cnc4ccccc4c3=O)sc2c1
    5 | 12 | 11 | -13 | 11 | -2 | 3 | i
CC(=O)NC1(C(F)(F)F)C(=O)Nc2c1c(=O)[nH]c(=O)n2-c1ccccc1 (stereo not drawn)
    -3 | -11 | -3 | / | -8 | 1 | 1 | i
Cc1cc(C(F)(F)F)nc(NCc2ccc(F)cc2)n1
    -6 | 6 | 9 | -13 | -5 | 1 | 2 | i
Cc1cc(C)nc(-n2nc(C)c(Sc3ccc(F)cc3)c2N)n1
    -15 | -5 | -11 | -19 | / | 8 | -5 | i
Cc1ccccc1-n1c(SCC(=O)N2CCOCC2)nc(O)cc1=O
    5 | -8 | 0 | 17 | / | 4 | 6 | i
O=C(NCCO)c1ccc(-c2nnc(Nc3ccc(O)cc3)c3ccccc23)cc1
    -8 | -4 | 24 | -16 | 3 | -4 | 1 | i
O=C(Nc1ccncc1)c1c(Cl)cccc1Cl
    -11 | -10 | 2 | 15 | 41 | -17 | -15 | /
CSc1sc(C(=O)Nc2ccc(F)cc2F)c2c1C=CCC2
    33 | 4 | -4 | -13 | -11 | 0 | 2 | i
COc1ccc(C(=O)NCc2nnc(SCC(=O)N3CCC(C)CC3)o2)cc1
    -7 | 6 | -11 | / | 1 | 3 | 6 | i
Cc1sc2nc(-c3ccncc3)[nH]c(=O)c2c1-c1ccccc1
    8 | 1 | 14 | / | / | / | / | i
COC(=O)c1sc2nc(-c3ccccc3)nc(N3CCN(C)CC3)c2c1C
    / | -5 | -6 | 6 | / | 15 | -10 | i
O=C(NCCCN1CCOCC1)c1ccc(Br)cc1
    11 | -2 | -3 | -12 | / | 5 | 4 | i
NC(=O)N/N=C(/CCCCCC/C(=N\NC(N)=O)c1ccccc1)c1ccccc1
    4 | 3 | 6 | -1 | -22 | -1 | -4 | i
N#C/C(=C(/O)CN1CCCCC1)c1nc(-c2ccc(Cl)cc2)cs1
    0 | -4 | 8 | -19 | -18 | -1 | 1 | i
C=CCC(C(=O)Oc1c(C(C)(C)C)cc(C)cc1C(C)(C)C)c1ccccc1 (stereo not drawn)
    16 | / | / | 2 | 4 | 1 | 4 | /
COCCN(Cc1ccccc1)C(=O)C1CCN(S(=O)(=O)c2ccc(OC)c(OC)c2)CC1
    2 | / | / | 0 | -33 | 0 | 0 | i
CN(Cc1ccccc1)C(=O)COC(=O)c1ccc(=O)n(Cc2ccccc2)n1
    / | / | / | 5 | / | 6 | 2 | i
O=[N+]([O-])c1c(NCCCO)cc(Sc2ccc(Cl)cc2)c2nonc12
    88* | -2 | -3 | -18 | 2 | -21 | -27 | i
CCOc1ccc2nc(NC(=O)CN3CCN(C)CC3)sc2c1
    23 | -9 | -10 | 15 | / | 0 | 2 | i
Cc1ccc(-n2c(O)c(C=NCc3ccccn3)c3ccccc3c2=O)cc1C
    -4 | -9 | 1 | / | 6 | -10 | -11 | i
CC(=O)N1CC2([N+](=O)[O-])CN(C(C)=O)CC([N+](=O)[O-])(C1)C2(C)C
    -19 | 10 | 3 | / | 2 | -1 | 4 | i
CCc1ccc(/C=C2\SC(=S)N(CCCC(=O)Nc3ccc(C(=O)O)cc3)C2=O)cc1
    5 | -2 | 9 | -2 | 1 | 4 | 3 | i
Cc1ccc(S(=O)(=O)NCCC(=O)NCc2ccccc2)cc1
    -14 | -10 | -7 | 4 | / | -1 | 2 | i
COCCOC(=O)C1=C(C)N(c2ccccc2)C(=O)NC1c1cccc([N+](=O)[O-])c1 (stereo not drawn)
    5 | 2 | 5 | / | 1 | 0 | -6 | i
COc1cccc(CN2CCN(S(=O)(=O)c3ccc(NC(C)=O)cc3)CC2)c1OC
    -8 | 4 | 8 | / | 5 | -1 | -2 | i
Cn1c(=O)n(C)c2cc(S(=O)(=O)Nc3ccc(F)cc3)ccc21
    -16 | 4 | 18 | -7 | 7 | 7 | -9 | i
CC(Oc1ccccc1F)C(=O)NN (stereo not drawn)
    3 | 9 | -4 | -4 | 6 | -4 | 4 | i
CCN(C(=O)C1CCCO1)c1ccccc1 (stereo not drawn)
    3 | -7 | 0 | -19 | -8 | 4 | 8 | i
COc1cc(OC)cc(C(=O)Nc2ccc(-c3nc4ccccc4o3)cc2)c1
    14 | -5 | -5 | -3 | / | 31* | 1.3* | i
Cc1ccc(-n2c3c(c(=O)[nH]c2=O)C(NS(=O)(=O)c2ccc(C)cc2)(C(F)(F)F)C(=O)N3)cc1 (stereo not drawn)
    -15 | 0 | -10 | -10 | -160 | 4 | 0 | i
COc1cc(/C=C(\C#N)C(=O)N2CCOCC2)cc(Br)c1O
    0 | -6 | -4 | -8 | 9 | -7 | 3 | /
c1ccc(-c2noc(CN3CCc4sccc4C3)n2)cc1
    7 | -3 | 1 | -8 | 12 | -2 | 0 | i
C[C@H](CO)N1C[C@H](C)[C@@H](CN(C)Cc2ccncc2)Oc2c(NS(=O)(=O)c3ccc(F)cc3)cccc2C1=O
    / | / | / | 2&-17 | -7 | 2 | 3 | /
COc1ccc(C(CNC(=O)c2ccc(S(=O)(=O)N(C)C)cc2)N2CCCCC2)cc1 (stereo not drawn)
    -8 | 9 | -1 | / | -23 | 2 | 5 | i
CC/C(=N/Nc1cccc(C)c1)c1cnnc(SC)n1
    8 | ? | -9 | / | -24 | -151 | -1 | i
Cc1cnn(C(=O)Cn2nc(C(F)F)c(Br)c2C)c1
    / | / | / | 4 | -5 | 0 | 0 | /
CCOC(=O)Nc1ccc2c(c1)OCO2
    7 | -9 | -5 | -20 | -113 | -2 | -2 | i
Cc1ccc(C(=O)NNC(=O)c2ccco2)cc1
    4 | -10 | 16 | / | -8 | 1 | 4 | i
Cc1cc(C)n2ncc(/C(N)=N/OC(=O)c3ccccc3F)c2n1
    -5 | 3 | 0 | / | -61 | 1 | 3 | i
COc1ccc(NC(=O)c2cccc(NS(=O)(=O)c3ccccc3)c2)cc1
    -4 | 1 | 36 | 3 | 17 | 3 | -6 | i
CCOC(=O)c1ccc(NC(=S)NC(=O)c2cncc(Br)c2)cc1
    -8 | -1 | -6 | -8 | 23 | 2 | -2 | i
Cc1cc(C)c2c(=O)[nH]c(SCC(=O)c3ccc(C)c(C)c3)nc2n1
    -2 | -23 | -1 | / | -5 | 6 | 10 | i
Cc1ccc(-n2nc3ccc(N)cc3n2)cc1Cl
    20 | 33 | 10 | -22 | -70 | -2 | 4 | i
Cc1nnc(NC(=O)CSc2nc(C3CCCCC3)nc3ccccc23)s1
    -1 | -3 | -2 | -13 | / | -7 | -6 | i
CCCOc1c(OC)cccc1C1CC(=O)Nc2cc3c(cc21)OCCO3 (stereo not drawn)
    ? | -15 | 3 | 8 | / | 1 | -8 | i
O=C(NCc1ccco1)C1CCN(S(=O)(=O)c2cccc([N+](=O)[O-])c2)CC1
    / | -11 | -6 | -16 | -3 | 1 | 1 | i
COc1ccc(/C=C/C(=O)N2CCN(S(=O)(=O)/C=C/c3ccccc3)CC2)cc1OC
    -1 | -16 | -8 | -20 | 11 | 3 | -5 | i
Cc1oc(-c2cccc(Cl)c2)nc1CN1CCC(C(=O)NCCCN2CC(C)CC(C)C2)CC1 (stereo not drawn)
    -14 | -2 | 30 | -24 | / | 3 | 2 | i
COc1ccc2cc(Br)ccc2c1CC(=O)NCC1CCCO1 (stereo not drawn)
    -7 | 0 | -6 | 0 | -8 | 2 | -4 | i
CCCOc1ccc(OCCSc2ncccn2)cc1
    8 | 7 | -8 | -42 | -271 | 4 | 4 | i

Remaining list, next part
Under each structure – CSC inhib | eIF4H FP inh | PABP FP inh | Yeast UUG start | Env fusion inh | MT1-MMP act inh | MT1-MMP act inh RFP | Rce1 inh
O=C(OCC(=O)N1CCN(C(=O)c2ccco2)CC1)c1cccc(F)c1
    / | / | / | -5 | -2 | 2 | 5 | /
Cc1nc2ccc([N+](=O)[O-])cc2c(=O)n1Cc1ccc(F)cc1
    -8 | -9 | 15 | -1 | 0 | 1 | -4 | i
CC(NC(=O)c1ccco1)C(c1cccs1)N1CCOCC1 (stereo not drawn)
    -14 | -10 | 0 | -14 | 8 | -1 | 4 | i
COC(=O)c1ccc([C@H]2CC(=O)O2)cc1
    3 | 10 | -2 | -9 | -23 | 21 | 3 | i
O=C(Nc1ccccn1)C1CCN(S(=O)(=O)c2ccc3c(c2)OCCO3)CC1
    / | / | / | -14 | 3 | 6 | 4 | /
O=C(NCCS(=O)(=O)N1CCc2ccccc2C1)c1ccccc1
    1 | / | / | 1 | -13 | 1 | 3 | i
Cc1cc(SCC(=O)Nc2ccccc2C)nc(C)n1
    0 | 1 | 1 | -10 | -6 | / | / | i
O=[N+]([O-])c1cccc(S(=O)(=O)NCCCN2CCOCC2)c1
    -5 | -3 | -8 | -13 | 12 | 0 | 3 | i
COC(=O)c1c(C)c(C)nc(N)c1C#N
    -8 | -6 | 14 | -11 | / | -3 | 2 | i
CN(Cc1ccccc1)C(=O)COC(=O)c1cc(Cl)nc(Cl)c1
    -14 | 30 | -3 | / | -14 | 4 | 5 | i
O=C(CCCCC(=O)Nc1ccccc1)Nc1ccccc1
    -15 | 11 | 3 | -4 | -7 | -2 | 1 | i
CCCNC(=O)N1CCC(C(=O)c2ccc(F)cc2)CC1
    / | -10 | -3 | -10 | -52 | 2 | 8 | i

Whole records, quoted from the list:
O=C(CCCCC(=O)Nc1ccccc1)Nc1ccccc1 as listed: CSC inhib: -15; eIF4H FP inh: 11; PABP FP inh: 3; Yeast UUG start: -4; Env fusion inh: -7; MT1-MMP act inh: -2; MT1-MMP act inh RFP: 1; Rce1 inh: i
O=[N+]([O-])c1cccc(S(=O)(=O)NCCCN2CCOCC2)c1 as listed: CSC inhib: -5; eIF4H FP inh: -3; PABP FP inh: -8; Yeast UUG start: -13; Env fusion inh: 12; MT1-MMP act inh: 0; MT1-MMP act inh RFP: 3; Rce1 inh: i
